DT40 TDP1 CPT = DT40-hTDP1 cell growth loss with CPT; chicken DT40 Tdp1-/-;hTDP1 cells + 20 nM CPT, ATP luminescence, 48 h; 420,000 compounds, 12% hits; Potency, µM (doses to about 46.2 µM), for the others: top-dose activity change, negative = growth inhibition, actives largely listed as inhibitors; note: nearly all actives have a fitted effect of over 55% in size
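Cell growth measured by CellTiter-Glo luminescence after a minimum 48 h, 37 C compound exposure with 20 nM CPT in Tdp1-knockout DT40 cells stably expressing hTDP1, seeded 400/well; qHTS titration format.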
N370S GC mod = N370S glucocerebrosidase modulation, Gaucher chaperone candidate; N370S GC spleen homogenate, 4MU-glucoside fluorescence; 330,000 compounds, 0.092% hits; AID 2101; P04062; Potency, µM (doses to about 59.4 µM), without a hit: at the highest dose activity change, negative = inhibition, actives largely listed as inhibitors;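 note: 0% = full enzyme activity and -100% = no enzyme basal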
An asterisk follows results filed as active; ? = inconclusive; . = not tested or not shown; [ ] = dose if it differs, or a comment. Calls come from the whole dose curve; as a rule, active = well fitted curve in the direction sought with a large enough effect; inconclusive = small, poorly fitted or top-dose-only effect, or another doubt; inactive = no such curve, though single readings can be large; an effect the other way counts as inactive or inconclusive. Unless noted, % is set by controls: 0 for no effect and ±100 for the full control effect; potency is the fitted concentration of half-maximal effect. The list is partial; most or all hits stand in other tables.

SMILES | DT40 TDP1 CPT | N370S GC mod
COC(=O)CC1C(=O)NCCN1C(=O)CSc1nc2ccccc2c(=O)n1CC(C)C (stereo not given) | 3.8% | -3.6%
O=C(NCc1ccccc1)C1=C[C@@H](C2CC2)C[C@@H](OCCCCO)O1 | 0.5% | 13.3%
Cn1c(=O)c2c(nc(SCCCC#N)n2Cc2ccccc2F)n(C)c1=O | ? | 13.2%
Cn1nccc1C(=O)N1CCCC(C(=O)c2ccc(C(F)(F)F)cc2)C1 (stereo not given) | ? | -2.6%
Cc1ccc(-c2c(C(=O)O)c(C(=O)O)c3n2CCC3)cc1 | -7.7% | 3.7%
CCc1nc(N2CCN(C(=O)c3ccccc3)CC2)c(C#N)c2c1COC(C)(C)C2 | 18.4µM* | -6.2%
CCC/C=C1/CCCOC(C(=O)NCc2ccccc2)(C(F)(F)F)C1 (stereo not given) | ? | 6.5%
CC1CCCCN1C(=O)CSc1nnc(-c2cccnc2)o1 (stereo not given) | 8.3% | 1.5%
N#Cc1cc(C(=O)c2ccccc2OCC(=O)Nc2ccccc2)cn(C2CCCCC2)c1=O | -1.2% | 11.1%
O=c1cc(-c2ccccc2)nc(N2CCCCC2)[nH]1 | -25.1% | 15.6%

Entries of single compounds as entered above.
CCC/C=C1/CCCOC(C(=O)NCc2ccccc2)(C(F)(F)F)C1 (stereo not given) is listed as DT40 TDP1 CPT: ?; N370S GC mod: 6.5%
CCc1nc(N2CCN(C(=O)c3ccccc3)CC2)c(C#N)c2c1COC(C)(C)C2 is listed as DT40 TDP1 CPT: 18.4µM*; N370S GC mod: -6.2%

The listing continues:
SMILES | DT40 TDP1 CPT | N370S GC mod
Cc1ccc(C(=O)C(C)N2C(=O)NC(C)(c3ccccc3)C2=O)cc1 (stereo not given) | 0.3% | 2.3%
O=C(CCn1c(=O)[nH]c2ccccc2c1=O)Nc1ccccc1 | 37.6%[activator] | 0.9%
O=C(N/N=C\c1ccc(-c2ccccc2[N+](=O)[O-])o1)C1COc2ccccc2O1 (stereo not given) | 0.5% | -0.8%
COc1ccc2c(c1OC)C(=O)OC2Nc1ncc(Br)cc1Br (stereo not given) | -0.9% | 0.9%
Cc1noc(C)c1NC(=O)Nc1ccc2c(c1)C(=O)N([C@H](C)CO)C[C@H](C)[C@@H](CN(C)S(C)(=O)=O)O2 | -25.1% | .
O=C(Cn1c(C(=O)NCc2ccco2)cc2sccc21)c1ccccc1 | ? | 7.1%
C=CCN1C(=O)CN=C1Nc1ccccc1 | -0.7% | 6.5%
Cc1ccc(-c2csc3ncnc(NCCC(=O)O)c23)cc1 | 23.2% | -7.5%
Cc1cccc(NC(=O)CC2(CC(=O)O)CCCC2)c1 | -7.3% | -15.6%
CCOC(=O)c1cc(NC(=O)Nc2nc3ccccc3s2)c(C)nc1C | ? | 4.0%
O=C(NCCCCNC(=O)c1ccccc1F)c1ccccc1F | -0.4% | -1.2%
CCCCN(CCCC)c1cn[nH]c(=O)c1Cl | -9.4% | -0.8%
COc1cccc(-c2ccc(NC(=O)C3CCCN(Cc4ccc(CO)o4)C3)cc2)c1 (stereo not given) | 16.4µM* | -18.2%
Cc1cc(C)c(NC(=O)CSc2nnc(CNC(=O)c3ccco3)o2)c(C)c1 | -3.1% | 4.6%
CC(C)N(Cc1c(O)ccc2c(=O)c(-c3ccc(Cl)cc3)coc12)C(C)C | 2.06µM* | -5.1%
COC(=O)c1c(NC(=O)C2CCCCC2)sc2c1CC(C)(C)NC2(C)C | ? | -0.9%
Cc1cc(C)c(NC(=O)COC(=O)C23CC4CC(CC(O)(C4)C2)C3)c(Cl)c1 | 0.6% | .
Cc1ccc(NC2CCCN(C(=O)c3cn(C)c4ccccc34)C2)cc1C (stereo not given) | ? | -8.7%
CCOC(=O)C(=NC(C)C)NNc1cc(Cl)ccc1Cl | ? | -7.3%
Cc1cc(N(C)C)c(C#N)c(N2CCCCC2)n1 | -2.5% | -7.1%
CSc1ccc(CN2CCC(CO)(CCOc3ccccc3)CC2)cc1 | ? | -16.0%
CCOc1ccc(NC(=O)COc2ccc(-n3cnnn3)cc2)cc1 | 15.0% | .
Cc1ccc(C)c(NC(=S)N2CCN(S(C)(=O)=O)CC2)c1 | -12.5% | -2.8%
COC(=O)Nc1nnc(-c2ccncc2)s1 | ? | 11.2%
Cc1ccc(CNC(=O)Cn2cnc3cc([N+](=O)[O-])ccc3c2=O)cc1 | 0.2% | -12.1%
CSCC(C)N1CCC(n2nccc2NC(=O)c2ccccc2C)CC1 (stereo not given) | -4.3% | -2.3%
N#Cc1ccc(S(=O)(=O)NC2CCCCNC2=O)cc1 (stereo not given) | 15.8% | -14.4%
Cc1cc(=O)[nH]c(SCC(=O)Nc2ccc3c(c2)OCCO3)n1 | 14.9% | 6.7%
COc1cccc(C(=O)NNC(=O)c2cccc(F)c2)c1 | 0.1% | 3.2%
Cc1ccc(NC(=O)CCC(=O)OCC(F)(F)C(F)F)cc1 | -8.7% | 4.2%

The last 3 compounds of the part above lead into the next:
SMILES | DT40 TDP1 CPT | N370S GC mod
Cc1cc(=O)[nH]c(SCC(=O)Nc2ccc3c(c2)OCCO3)n1 | 14.9% | 6.7%
COc1cccc(C(=O)NNC(=O)c2cccc(F)c2)c1 | 0.1% | 3.2%
Cc1ccc(NC(=O)CCC(=O)OCC(F)(F)C(F)F)cc1 | -8.7% | 4.2%
CCn1c(CC(=O)Nc2ccccc2)nnc1SCC(=O)NC1=NCCS1 | ? | -22.7%
CN(Cc1c(C(=O)N2CCc3ccccc3C2)nc2ccc(Cl)cn12)C(C1CC1)C1CC1 | 5.8% | -27.3%
CC(C(=O)Nc1ccc(N(C)C)cc1)N1C(=O)c2ccccc2S1(=O)=O (stereo not given) | 1.0% | -2.5%
CCn1c(=O)c2cc(C(=O)Nc3cccc(C(C)=O)c3)sc2c2ccccc21 | -18.9% | -2.8%
O=C1c2ccsc2SCCN1Cc1ccc(F)cc1 | -6.7% | -12.1%
Cc1c(Cc2ccccc2)sc(NC(=O)C(C)(C)C)c1C(N)=O | 16.4µM* | 2.9%
Cc1ccc(C(C)NC(=O)c2ccncc2)c(C)c1 (stereo not given) | ? | -9.4%
O=C(NCCO)/C(=C\c1ccco1)NC(=O)c1cccs1 | -5.7% | 11.3%
CCOc1ccccc1N1CCN(Cc2c(C)n(C)n(-c3ccccc3)c2=O)CC1 | 12.4% | 20.8%
Cc1cccc(-n2nc(C(=O)Nc3ccccc3)n3c(=O)cc(-c4ccccc4)nc23)c1 | ? | 6.4%
O=C(CSc1nnc(-c2ccncc2)o1)NCc1ccccc1 | -3.2% | 7.9%
CC(=O)N(Cc1ccccc1)Cc1nc2sc(C)c(C)c2c(=O)[nH]1 | 7.0% | 12.8%
CC1=C/C(=N\OS(=O)(=O)c2ccccc2)C=CC1=O | 0.631µM* | -8.7%
Cc1cccc(C(=O)Nc2ccc3c(c2)ncn3C)c1 | 1.6% | 0.2%
O=C(/C=C/c1ccc(Cl)cc1Cl)N(Cc1ccc(Cl)cc1)C1CCS(=O)(=O)C1 (stereo not given) | ? | -4.0%
Cc1cccc(C)c1NC(=S)N1CCC(N(C)CC2CCCO2)CC1 (stereo not given) | -3.3% | 16.6%
CCCN1C(=O)c2ccccc2NC1c1ccc(Cl)cc1 (stereo not given) | -3.4% | ?
COCCN(C(=O)COC(=O)c1c(-c2ccccc2)noc1C)c1c(N)n(Cc2ccccc2)c(=O)[nH]c1=O | -17.0% | 1.8%
C/C(CC(C)C)=N\NC(=O)Nc1ccccc1 | -4.6% | 5.3%
CCN(CC)S(=O)(=O)c1cccc(C(=O)N[C@H](C(=O)Nc2nc3ccccc3s2)C(C)C)c1 | ? | -13.5%
O=C(NCc1ccco1)c1cccc(Br)c1 | -2.8% | 2.5%
CC(C)Cn1c(-c2ccccc2)nc(=S)c2c1CCCC2 | ? | 0.8%
CC(=O)c1cccc(NC(=O)c2ccc3c(=O)n4c(nc3c2)CCCCC4)c1 | ? | -2.9%
CCOC(=O)C(=O)C1=C(N2CCOCC2)/C(=C\c2ccc(F)cc2)CC1 | -28.3% | 1.2%
COc1ccc(NC(=O)NNC(=O)c2ccc3ccccc3c2O)cc1OC | -7.7% | ?
CCc1c(C)nc(Nc2nc(C)c3cc(OC)ccc3n2)[nH]c1=O | ? | 0.5%
O=C(Nc1ccc(C(=O)N2CCOCC2)cc1)c1ccc([N+](=O)[O-])cc1 | 11.7% | -3.9%
Cc1cc(=O)oc2cc(OCC(=O)NCCCn3ccnc3)ccc12 | 18.0% | 0.0%
Cc1oc(-c2ccc(Cl)cc2)nc1CN1CCCC(C(=O)NC2CC2)C1 (stereo not given) | 16.4µM* | -3.3%
CC(=O)c1c(O)c2ccccc2n(C2CCCCC2)c1=O | ? | -2.8%
O=C(C1CCCO1)N1CCN(C(=S)Nc2cccc(Cl)c2)CC1 (stereo not given) | 8.4% | 7.3%
O=C(CSc1nnc(NC2CCCCC2)s1)NC1CCS(=O)(=O)C1 (stereo not given) | -2.5% | -14.6%[2.35 µM]
Cc1ccc(S(=O)(=O)NCc2ccc(C(=O)NC3CCC(C)CC3)cc2)cc1 (stereo not given) | ? | 9.0%
Clc1ccccc1C1=CC(c2ccco2)n2ncnc2N1 (stereo not given) | -1.4% | 5.6%
FC(F)(F)c1cnc(/C=C/Nc2ccccc2Cl)c(Cl)c1 | -5.6% | 13.4%
COC(=O)c1c(NC(=O)Cc2cccs2)sc(C(=O)N2CCCCC2)c1C | ? | -1.5%
Nc1n[nH]c(N)c1N=Nc1ccc(Cl)cc1 | 2.6% | -10.7%
CN(CC(=O)NCCc1ccc(S(N)(=O)=O)cc1)S(=O)(=O)/C=C/c1ccccc1 | -20.9% | -0.8%
CC(C)C[C@H]1CN=C(Nc2ccccc2)N1CC(C)C | -26.0% | -7.2%
CC(=O)Nc1ccc(S(=O)(=O)Nc2ccccc2C(=O)N2CCOCC2)cc1 | 27.9% | -2.2%
COc1cc2c(cc1OC)C1(CCCC1)CNC2C (stereo not given) | -18.3% | 0.5%
Cc1csc(NC(=O)c2ccc(S(C)(=O)=O)cc2)n1 | 0.3% | -9.4%
COc1ccc(NC(=O)c2ccc3ncsc3c2)c2ccccc12 | 2.7% | -0.3%
CCCn1c(-c2cccc([N+](=O)[O-])c2)nc2c1c(=O)[nH]c(=O)n2Cc1ccccc1 | 20.6µM* | ?
COc1ccc(-c2nnc(Nc3ccc(CC(N)=O)cc3)c3ccccc23)cc1 | -4.2% | 15.2%
COC(=O)COc1ccc(S(=O)(=O)N2CCN(c3ccc(F)cc3)CC2)cc1 | -1.0% | -4.9%
COc1ccc(Oc2ccccc2/C=N/O)cc1 | -22.8% | 12.4%
CC(C)[C@H](NC(=O)C1CCCC1)c1nc2ccccc2[nH]1 | -3.2% | 8.1%
Cc1cccc(C)c1NC(=O)COC(=O)c1ccc(N2CCCC2)c([N+](=O)[O-])c1 | -9.1% | 2.3%
CN1c2ccccc2C(C)(C)C12CC(c1ccc(S(=O)(=O)N3CCCCC3)cc1)=NO2 (stereo not given) | ? | 17.0%
(cont.)
SMILES | DT40 TDP1 CPT | N370S GC mod
O=C(Nc1ccccc1F)c1cc2c(s1)-c1ccccc1S(=O)(=O)C2 | -19.4% | -3.8%
O=C(NCC1CCCO1)c1ccc(NS(=O)(=O)c2cccc([N+](=O)[O-])c2)cc1 (stereo not given) | -16.7% | 0.0%
O=C(NCc1ccco1)c1cc(S(=O)(=O)N2CCOCC2)ccc1Cl | -8.8% | -5.6%
COc1ccc(CN2CCNC(=O)C2CC(=O)NCc2cnn(C)c2)cc1OC (stereo not given) | -7.3% | -5.9%
O=C(Nc1ccccc1[N+](=O)[O-])C1COc2ccccc2O1 (stereo not given) | 2.0% | -1.7%
O=C(OCc1ccc([N+](=O)[O-])cc1)C1CC(=O)N(c2ccccc2)C1 (stereo not given) | -7.7% | 1.3%
NS(=O)(=O)c1ccc(CNC(=O)CC23CC4CC(CC(C4)C2)C3)cc1 | ? | 26.1%
COc1ccccc1N1C(=O)CC(N2CCN(c3ccc(Cl)cc3)CC2)C1=O (stereo not given) | -11.8% | -6.7%
CCc1noc(C)c1C(=O)OCC(=O)NCc1ccc(Cl)cc1 | -12.1% | .
FC(F)(F)c1cnc(-c2cnc(-c3ccccn3)nc2)c(Cl)c1 | ? | 10.8%
Cc1cc(Nc2cc(C)on2)n2ncnc2n1 | 9.0% | -3.1%
CCOC(=O)c1c(C2CC2)csc1NC(=O)COC(=O)CCS(=O)(=O)c1ccc(C)cc1 | 12.5% | 13.1%
N#Cc1c(Cn2cncn2)nc(=O)n(-c2ccc(Cl)cc2)c1N | -12.6% | 4.4%
CC(=O)c1ccc(Nc2cc(C)nc3c(C)cc(C)cc23)cc1 | 4.61µM* | 8.3%
OCCC1CN(Cc2nc3c(s2)CCCC3)CCN1Cc1ccsc1 (stereo not given) | -14.8% | -1.3%
COc1ccc(CN2C(=NC(=O)C3CC3)SC3CS(=O)(=O)CC32)cc1 (stereo not given) | -13.1% | 21.8%
CC1CC(C)(C)n2c(O)c(N=NC(N)=S)c3cccc1c32 (stereo not given) | ? | 2.0%
COc1ccc(/C=C2/SC(=O)N(CCC(=O)Nc3ccccc3C(=O)O)C2=S)cc1 | -3.1% | -6.2%
CC(OC(=O)/C=C/c1ccccc1Cl)C(=O)NC1CCCCC1C (stereo not given) | -23.0% | -6.6%
COc1ccc(NC(=O)Cn2c(-c3ccc(OC)cc3)cn(-c3ccc(C)cc3)c2=O)cc1 | -0.5% | -1.0%

High-throughput results from PubChem.
